PABP polyA inh: blocks human PABP binding to poly(A) RNA; inhibition, % at 35 µM; P11940; fluorescence polarization; hit rate 1% among 290,000;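 active = 50% or more with normal probe brightness, or confirmed in later tests; about a fifth of its hits are not listed in these tables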;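 note: calls also rest on retests at 20 µM and on dose response follow-up; controls were probe without protein and protein plus probe with vehicle; some compounds called inactive have numbers as strong as hits; many hits fall short of the cut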
Target sequence (P11940 whole entry, looked up): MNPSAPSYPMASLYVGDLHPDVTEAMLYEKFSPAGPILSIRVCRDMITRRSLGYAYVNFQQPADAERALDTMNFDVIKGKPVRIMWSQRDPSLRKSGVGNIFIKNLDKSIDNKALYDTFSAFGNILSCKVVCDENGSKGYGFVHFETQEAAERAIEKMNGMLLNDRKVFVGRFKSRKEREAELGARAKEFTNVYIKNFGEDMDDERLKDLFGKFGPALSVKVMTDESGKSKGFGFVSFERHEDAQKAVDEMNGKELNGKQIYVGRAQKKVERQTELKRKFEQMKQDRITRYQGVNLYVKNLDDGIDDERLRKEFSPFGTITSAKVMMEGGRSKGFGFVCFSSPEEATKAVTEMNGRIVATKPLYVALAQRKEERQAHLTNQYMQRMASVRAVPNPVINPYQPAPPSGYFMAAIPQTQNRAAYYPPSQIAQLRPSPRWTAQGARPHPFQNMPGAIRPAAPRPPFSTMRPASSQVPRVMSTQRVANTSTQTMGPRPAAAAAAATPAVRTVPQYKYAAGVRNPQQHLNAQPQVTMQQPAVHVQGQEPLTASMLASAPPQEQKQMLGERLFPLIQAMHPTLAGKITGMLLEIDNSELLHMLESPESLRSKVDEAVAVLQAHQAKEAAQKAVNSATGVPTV
Env fusion inh: inhibitors of HIV Env-mediated cell fusion | HeLa-JRFL Env/CEM21 cell fusion, luciferase | inhibition, % at 12.3 µM | hit rate 1.1% among 360,000;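 active = mean replicate inhibition score of at least 50 and every replicate individually at or above 50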;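 note: 0% = plate neutral controls and 100% = maraviroc near 300 nM; one replicate is shown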
Yeast UUG start: alters start codon recognition fidelity in yeast; activity score, % at 18.7 µM; hit rate 0.13% among 350,000; S. cerevisiae UUG-firefly luciferase reporter, luminescence/redox ratio; AID 602363;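 active = replicate mean at a twofold rise or more, about +100% in these data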;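 note: firefly luciferase made from a UUG start codon reports start codon fidelity; reporter light over untreated wells divided by growth signal over untreated wells; some hits fall short of that in this replicate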
MT1-MMP act inh: MT1-MMP (human) activation inhibition. P50281. HT1080 RFP-PRO-GFP cells, GFP/RFP ratio fluorescence, overnight; percent of plate control window, DMSO zero. GFP/RFP ratio change, % at 20 µM. hit rate 0.061% among 360,000. AID 651647;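 active = GFP/RFP ratio change of at least 30% with cell ATP level not reduced by more than half and red fluorescence within 50% of control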; note: strong numbers were not always called active
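Assay system: HT1080 RFP-PRO-GFP cells. Benchmarks: DMSO vehicle wells and RFP-L50D-GFP reporter cell wells. Times: overnight cell settling, then overnight compound exposure, 37 °C, 5% CO2. Compound: 20 µM single dose, 1% DMSO. Read-out basis: GFP/RFP fluorescence ratio.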
CSC inhib: cancer stem cell inhibition; AID 2717; inhibition, % at 7.5 µM; hit rate 1.1% among 300,000; cancer stem cell-like cells viability, luminescence;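 active = mean at 75% or more and at least half the replicates too; tested in HMLE shEcad cells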;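 note: 0% = median of negative and 100% = median of positive control wells; the first replicate is given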
eIF4H inh: inhibitors of RNA binding by human eIF4H. inhibition, % at 35 µM. Q15056. eIF4H fluorescence polarization binding assay. hit rate 0.94% among 290,000;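 active = 50% or more with normal probe brightness, or confirmed in later tests; about a fifth of its hits are not listed in these tables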;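 note: calls also rest on retests at 20 µM and on dose response follow-up; 0% = protein and probe with vehicle and 100% = probe without protein; strong numbers were not always called active; many hits fall short of the cut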
Rce1 inh: blocks yeast Ras-converting enzyme; hit rate 0.27% among 290,000; Q03530; yeast membranes, quenched prenylated peptide cleavage fluorescence; calls only;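 active = fall in fluorescence gain of 50% or more versus controls, with final raw signal at or below 3038400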;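 note: plate controls were neutral control wells for no effect and wells lacking membranes for full effect; tested at 10 µM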
MT1-MMP act inh RFP: recorded beside MT1-MMP act inh, whose call it bears; RFP signal change, %; measured here: RFP expression control read;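 0 = vehicle wells; hits needed this value within 50% of zero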
Numbers without * were called inactive. The list is partial. The share of hits here may be higher or lower than overall.

What do the screens show for `O=C(COc1ccccc1)NC(NC(=S)Nc1ccccc1O)C(Cl)(Cl)Cl` (configuration not stated)?
PABP polyA inh: 8; Env fusion inh: -6; Yeast UUG start: -25; MT1-MMP act inh: 4; CSC inhib: 4; eIF4H inh: 1; Rce1 inh: inactive; MT1-MMP act inh RFP: -5

How did COc1cc(Br)cc(C(=O)N2CCc3ccccc32)c1OC do in these assays?
Env fusion inh: 3; Yeast UUG start: -21; MT1-MMP act inh: 5; MT1-MMP act inh RFP: -5

Results for CCOC(=O)N1CCN(C(=O)CN(c2ccc(Cl)c(C(F)(F)F)c2)S(C)(=O)=O)CC1 ?
PABP polyA inh: 2; Env fusion inh: -109; Yeast UUG start: 10; MT1-MMP act inh: -3; CSC inhib: -2; eIF4H inh: -5; Rce1 inh: inactive; MT1-MMP act inh RFP: -2

What do the screens show for `Cc1cccn2c(=O)c(/C=C(\C#N)C(N)=O)c(N3CCCCCC3)nc12`?
PABP polyA inh: 0; Env fusion inh: 12; Yeast UUG start: 12; MT1-MMP act inh: -10; CSC inhib: -9; eIF4H inh: -2; Rce1 inh: inactive; MT1-MMP act inh RFP: -2

What do the screens show for `CC1CCN(C(=O)C2CCC(C)(C(=O)O)C2(C)C)CC1` (configuration not stated)?
PABP polyA inh: -7; Env fusion inh: -3; MT1-MMP act inh: 6; CSC inhib: 14; eIF4H inh: -12; Rce1 inh: inactive; MT1-MMP act inh RFP: 6

How did Cc1sc2nc(C(C)C)nc(SCC(=O)NCc3ccco3)c2c1C do in these assays?
PABP polyA inh: 7; Env fusion inh: 26; Yeast UUG start: -3; MT1-MMP act inh: -25; CSC inhib: 11; eIF4H inh: -1; Rce1 inh: inactive; MT1-MMP act inh RFP: -7

Results for C=C1C(C(=O)Nc2ccc(OC)cc2)C1C(=O)Nc1ccc(OC)cc1 (configuration not stated) ?
PABP polyA inh: 11; Env fusion inh: 5; Yeast UUG start: -4; MT1-MMP act inh: -1; CSC inhib: -7; eIF4H inh: 6; Rce1 inh: inactive; MT1-MMP act inh RFP: -2

How did CC(C)(CO)NCC(O)Cn1cc(C=O)c2ccccc21 (configuration not stated) do in these assays?
PABP polyA inh: -19; Env fusion inh: -9; MT1-MMP act inh: 1; CSC inhib: -7; eIF4H inh: -6; Rce1 inh: inactive; MT1-MMP act inh RFP: 3

What do the screens show for `CCC(CO)NCc1cc(OC)c(OCC(=O)NCCc2ccccc2)cc1Br` (configuration not stated)?
PABP polyA inh: 11; Env fusion inh: -47; MT1-MMP act inh: 0; CSC inhib: -9; eIF4H inh: -4; Rce1 inh: inactive; MT1-MMP act inh RFP: 0

How did COc1cc(OC)c(C(=O)O/N=C(\N)c2ccccn2)cc1OC do in these assays?
PABP polyA inh: -7; Env fusion inh: -20; Yeast UUG start: -13; MT1-MMP act inh: 1; CSC inhib: -9; eIF4H inh: -7; Rce1 inh: inactive; MT1-MMP act inh RFP: 0

How did Cc1ccc(Sc2cnccc2C#N)cc1 do in these assays?
PABP polyA inh: -7; Env fusion inh: 2; Yeast UUG start: -16; MT1-MMP act inh: -4; CSC inhib: -9; eIF4H inh: -1; Rce1 inh: inactive; MT1-MMP act inh RFP: 1

What do the screens show for `CC(=O)SC1CC(=O)C=C2CCC3C4CCC(=O)OC4(C)CCC3C21C` (configuration not stated)?
Env fusion inh: -34; Yeast UUG start: -8; MT1-MMP act inh: 1; MT1-MMP act inh RFP: 4

What do the screens show for `CC/C(=N/Nc1ccccc1C)c1cnnc(SC)n1`?
PABP polyA inh: -10; Env fusion inh: 2; Yeast UUG start: -7; MT1-MMP act inh: 3; CSC inhib: 4; eIF4H inh: -7; Rce1 inh: inactive; MT1-MMP act inh RFP: 6

What do the screens show for `CCC(C)Sc1nc2c(cnn2-c2ccccc2)c(=O)[nH]1` (configuration not stated)?
PABP polyA inh: -15; Env fusion inh: 0; Yeast UUG start: -14; MT1-MMP act inh: -4; CSC inhib: 9; eIF4H inh: -3; Rce1 inh: inactive; MT1-MMP act inh RFP: -4

Results for Cc1cc2cc(C(c3nnnn3C(C)(C)C)N(Cc3ccco3)CC3CCCO3)c(=O)[nH]c2cc1C (configuration not stated) ?
PABP polyA inh: 11; Env fusion inh: -10; Yeast UUG start: 21; MT1-MMP act inh: -5; CSC inhib: -4; eIF4H inh: 10; Rce1 inh: inactive; MT1-MMP act inh RFP: -2

What do the screens show for `CCCC(=O)Nc1ccccc1-c1nnc(SCC)[nH]c1=O`?
PABP polyA inh: 0; Env fusion inh: -5; MT1-MMP act inh: 1; CSC inhib: -16; eIF4H inh: 5; Rce1 inh: inactive; MT1-MMP act inh RFP: 5

Results for CC(=O)Nc1ccc(-c2ccnc3c2CC(C)(C(=O)NCc2ccncc2)O3)cc1 (configuration not stated) ?
Env fusion inh: -5; Yeast UUG start: -8; MT1-MMP act inh: 3; MT1-MMP act inh RFP: 1

How did Cc1sc2ncn(CC(=O)NCCCC(=O)N3CCN(c4ccccc4)CC3)c(=O)c2c1C do in these assays?
PABP polyA inh: -3; Env fusion inh: -3; Yeast UUG start: -18; MT1-MMP act inh: 4; CSC inhib: -2; eIF4H inh: 4; MT1-MMP act inh RFP: 0

Results for CSc1cccc(NC(=O)C2CCN(S(=O)(=O)c3ccc4c(c3)NC(=O)CO4)CC2)c1 ?
PABP polyA inh: -5; Env fusion inh: -28; Yeast UUG start: -7; MT1-MMP act inh: 4; CSC inhib: 2; eIF4H inh: -22; Rce1 inh: inactive; MT1-MMP act inh RFP: -6

How did O=C(COC(=O)c1ccccn1)Nc1ccccc1Cl do in these assays?
PABP polyA inh: 3; Yeast UUG start: -8; MT1-MMP act inh: 1; CSC inhib: 14; eIF4H inh: 6; Rce1 inh: inactive; MT1-MMP act inh RFP: 0

What do the screens show for `Cc1ccc(OCC(=O)Oc2cccc(C)c2C)cc1`?
PABP polyA inh: 5; Env fusion inh: -2; Yeast UUG start: 7; MT1-MMP act inh: -3; CSC inhib: -7; eIF4H inh: -5; Rce1 inh: inactive; MT1-MMP act inh RFP: -4

Results for COc1ccccc1CC(=O)NC1CCN(Cc2ccccc2)CC1 ?
PABP polyA inh: 10; Env fusion inh: 1; Yeast UUG start: -6; MT1-MMP act inh: 5; CSC inhib: 7; eIF4H inh: 3; Rce1 inh: inactive; MT1-MMP act inh RFP: 6

What do the screens show for `COC(C)(C)[C@]12CC(O)(c3ccccc3)ON1[C@H]1CCCCC1N2O` (some centres not stated)?
PABP polyA inh: -6; Yeast UUG start: 14; MT1-MMP act inh: 5; CSC inhib: 1; eIF4H inh: -8; Rce1 inh: inactive; MT1-MMP act inh RFP: 19

Results for Cc1c(C(=O)OCC(=O)NCCN2C(=O)CSC2=O)oc2c1ccc1ccccc12 ?
PABP polyA inh: -1; Env fusion inh: -8; Yeast UUG start: -12; MT1-MMP act inh: 3; CSC inhib: -6; eIF4H inh: 4; Rce1 inh: inactive; MT1-MMP act inh RFP: -1

Results for COc1ccc(N(CC(=O)Nc2ccc(S(=O)(=O)N3CCOCC3)cc2)S(C)(=O)=O)cc1OC ?
Env fusion inh: -4; Yeast UUG start: 0; MT1-MMP act inh: 1; MT1-MMP act inh RFP: 3

How did COCCNC(=O)C1CCCN(c2ncccn2)C1 (configuration not stated) do in these assays?
PABP polyA inh: 4; Env fusion inh: -27; MT1-MMP act inh: -2; CSC inhib: -5; eIF4H inh: -4; Rce1 inh: inactive; MT1-MMP act inh RFP: 2

Results for CCCCCNC(=O)C(C)NS(=O)(=O)c1ccc(OC)cc1 (configuration not stated) ?
PABP polyA inh: 1; Yeast UUG start: 4; MT1-MMP act inh: -6; eIF4H inh: -10; MT1-MMP act inh RFP: 1

Results for COc1ccc(OC(=O)c2cccnc2)cc1 ?
PABP polyA inh: -8; Yeast UUG start: 7; MT1-MMP act inh: -3; CSC inhib: 8; eIF4H inh: 2; Rce1 inh: inactive; MT1-MMP act inh RFP: 0

Results for O=C(NCCCN1CCCC1=O)c1ccc2c(c1)NC(=O)c1ccccc1S2 ?
PABP polyA inh: 2; Env fusion inh: 0; Yeast UUG start: 10; MT1-MMP act inh: 0; CSC inhib: 3; eIF4H inh: -8; Rce1 inh: inactive; MT1-MMP act inh RFP: 4

Results for CCn1c(C)cc(/C=C2/NC(=O)N(CC(=O)Nc3cccc(C)c3)C2=O)c1C ?
PABP polyA inh: -23; Yeast UUG start: -8; MT1-MMP act inh: -7; CSC inhib: -8; eIF4H inh: -1; Rce1 inh: inactive; MT1-MMP act inh RFP: 1

3 compounds picked at random from the list so far:
Results for COc1ccc(OC(=O)c2cccnc2)cc1 ?
PABP polyA inh: -8; Yeast UUG start: 7; MT1-MMP act inh: -3; CSC inhib: 8; eIF4H inh: 2; Rce1 inh: inactive; MT1-MMP act inh RFP: 0

Results for CCn1c(C)cc(/C=C2/NC(=O)N(CC(=O)Nc3cccc(C)c3)C2=O)c1C ?
PABP polyA inh: -23; Yeast UUG start: -8; MT1-MMP act inh: -7; CSC inhib: -8; eIF4H inh: -1; Rce1 inh: inactive; MT1-MMP act inh RFP: 1

How did COCCNC(=O)C1CCCN(c2ncccn2)C1 (configuration not stated) do in these assays?
PABP polyA inh: 4; Env fusion inh: -27; MT1-MMP act inh: -2; CSC inhib: -5; eIF4H inh: -4; Rce1 inh: inactive; MT1-MMP act inh RFP: 2

The listing continues:
What do the screens show for `Cc1cc(=O)n2c(ccc3ccccc32)c1C#N`?
PABP polyA inh: 6; Yeast UUG start: -14; MT1-MMP act inh: -4; CSC inhib: -3; eIF4H inh: 4; Rce1 inh: inactive; MT1-MMP act inh RFP: 5

What do the screens show for `Cc1ccc(S(=O)(=O)N(C)C)cc1NC(=O)c1sccc1Cl`?
PABP polyA inh: 6; Env fusion inh: 8; MT1-MMP act inh: 2; CSC inhib: -8; eIF4H inh: 0; Rce1 inh: inactive; MT1-MMP act inh RFP: 3

What do the screens show for `COc1cc(C(=O)N[C@H](C(=O)NC2CCCc3ccccc32)C(C)C)cc(OC)c1OC` (some centres not stated)?
Env fusion inh: -7; Yeast UUG start: 3; MT1-MMP act inh: -1; CSC inhib: -16; MT1-MMP act inh RFP: -3

How did CC(NC(=O)CN(c1ccc(Cl)cc1)S(C)(=O)=O)c1ccccc1 (configuration not stated) do in these assays?
PABP polyA inh: 7; Env fusion inh: 23; Yeast UUG start: -9; MT1-MMP act inh: -4; CSC inhib: -15; eIF4H inh: -4; Rce1 inh: inactive; MT1-MMP act inh RFP: -2

What do the screens show for `COc1ccccc1CNC(=O)CN1C(=O)C(C)N(c2ccc(C)cc2)C1=O` (configuration not stated)?
PABP polyA inh: 8; Env fusion inh: -152; Yeast UUG start: -11; MT1-MMP act inh: 3; CSC inhib: 5; eIF4H inh: -6; Rce1 inh: inactive; MT1-MMP act inh RFP: -1

Results for Cc1ccc(C(O)P(=O)(OCc2ccccc2)c2ccc(N(C)C)cc2)cc1 (configuration not stated) ?
PABP polyA inh: -6; Env fusion inh: -79; MT1-MMP act inh: -4; CSC inhib: 4; eIF4H inh: 2; Rce1 inh: inactive; MT1-MMP act inh RFP: -7

How did CN(CC(=O)Nc1cccc(F)c1)C(=O)C1(c2ccccc2)CC1 do in these assays?
Env fusion inh: -1; Yeast UUG start: 7; MT1-MMP act inh: -1; CSC inhib: -13; MT1-MMP act inh RFP: 5

How did CCOC(=O)N1CCN(C(=O)Nc2ccc(NC(=O)N3CCN(C(=O)OCC)CC3)cc2)CC1 do in these assays?
PABP polyA inh: -7; Env fusion inh: 8; MT1-MMP act inh: -1; CSC inhib: -9; eIF4H inh: -3; Rce1 inh: inactive; MT1-MMP act inh RFP: 1

High-throughput results: PubChem BioAssay, several laboratories
